# Bioassay records: PubChem BioAssay, National Center for Advancing Translational Sciences (NCATS)
# LASV entry inh – qHTS for Inhibitors of binding or entry into cells for Lassa Virus; hit rate 1.2% among 300,000; AID 540256, 2011; Lassa virus pseudotype entry inhibition, cell reporter; control for the full effect not named in the record; Potency, µM (highest dose often 37.9 µM), inactives show at the top dose activity change, negative = inhibition, usual class: inhibitors; active means well fitted inhibition curve with a large enough effect; inconclusive means small, poorly fitted or top-dose-only effect, or effect the other way; inactive means flat fitted curve, though single readings scatter; tested in HEK293 cells; also: % is scaled to controls: 0 for no effect and ±100 for the full control effect; nearly all actives have a fitted effect of over 50% in size; luciferase read-out
# NS1 function inh – qHTS Assay for Inhibitors of Influenza NS1 Protein Function; S. cerevisiae slowed by influenza A NS1, growth recovery by OD600; Potency, µM (highest dose often 46.1 µM), without a hit: at the top dose activity, positive = more growth; hit rate 0.4% among 270,000; AID 2326, 2010; active means well fitted rising curve with a large enough effect; inconclusive means small, poorly fitted or top-dose-only effect; inactive means no such curve, though single readings can be large or run the other way; also: nearly all actives have a fitted effect of over 50% in size
#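 Recovery from NS1-induced slow growth read by OD600 in budding yeast switched to galactose assay medium (pH 6.0, -URA) at 1:100 dilution. Compound 23 nl per well; the matching strain lacking NS1 serves as control.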
# StopGo reporter – High Throughput Screening for Foot and Mouth Disease Virus Antivirals; human cells with a luciferase reporter of 2A StopGo recoding; control for the full effect not named in the record; Potency, µM (top dose mostly 57.9 µM), inactives show at the top dose signal change, negative = less light; hit rate 1.2% among 410,000; AID 1159524, 2015; active = well fitted falling curve with a large enough effect; inconclusive = small, poorly fitted or top-dose-only effect; inactive = no such curve, though single readings can be large or run the other way; tested in HEK293T cells; also: % is scaled to controls: 0 for no effect and ±100 for the full control effect; nearly all actives have a fitted effect of over 45% in size; luciferase light after 4 h
# SARS PLP yeast – qHTS of Yeast-based Assay for SARS-CoV PLP; S. cerevisiae expressing SARS-CoV PLpro, growth rescue; control for the full effect not named in the record; Potency, µM (series often up to 32.9 µM), for inactives: at the highest dose activity, positive = growth rescue; hit rate 0.19% among 330,000; AID 485353, 2010; active means well fitted rising curve with a large enough effect; inconclusive means small, poorly fitted or top-dose-only effect; inactive means no such curve, though single readings can be large or run the other way; also: 0% is about no effect; nearly all actives have a fitted effect of over 55% in size; growth read by luminescence after 48 h
# Cruzain noTriton – qHTS Assay for Promiscuous and Specific Inhibitors of Cruzain (without detergent) | Cruzipain (Trypanosoma cruzi), P25779 | purified cruzain, Z-FR-AMC fluorescence, no detergent | Potency, µM, for inactives: max response, negative = inhibition, usual class: inhibitors | hit rate 2.3% among 200,000 | AID 1476, 2009;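 also: plate controls were enzyme without inhibitor for no effect and buffer without enzyme for full effect; nearly all actives have a fitted effect of over 40% in size; top concentration of the series not given in the record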
# Target sequence (P25779 123-467 limits assumed): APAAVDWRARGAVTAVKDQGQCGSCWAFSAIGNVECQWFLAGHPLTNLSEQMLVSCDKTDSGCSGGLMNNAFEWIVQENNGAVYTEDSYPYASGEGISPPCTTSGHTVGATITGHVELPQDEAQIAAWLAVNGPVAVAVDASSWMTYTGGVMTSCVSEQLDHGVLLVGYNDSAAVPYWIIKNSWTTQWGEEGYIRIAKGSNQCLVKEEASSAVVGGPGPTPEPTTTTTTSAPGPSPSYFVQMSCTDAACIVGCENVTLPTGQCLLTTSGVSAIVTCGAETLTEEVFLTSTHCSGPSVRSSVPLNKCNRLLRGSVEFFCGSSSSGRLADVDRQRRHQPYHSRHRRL
#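 Purified cruzain at 1.5 nM, pre-incubated 15 min with compound at room temperature in 100 mM sodium acetate pH 5.5, 5 mM DTT, 0.00005% Triton X-100. Reaction started with 2 uM Z-FR-AMC; AMC fluorescence increase over 60 s gives rate.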
# RE007 growth inh – qHTS Assay for Inhibitors of the HIV-1 protein Vpr; S. pombe RE007 Vpr strain, BacTiter-Glo ATP luminescence, 24 h; control for the full effect not named in the record; Potency, µM (top dose mostly 92.2 µM), for the others: at the top dose activity change, negative = less growth; hit rate 0.21% among 360,000; AID 651644, 2012; active = well fitted falling curve with a large enough effect; inconclusive = small, poorly fitted or top-dose-only effect; inactive = no such curve, though single readings can be large or run the other way;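 also: % is scaled to controls: 0 for no effect and ±100 for the full control effect; nearly all actives have a fitted effect of over 50% in size; the assay follows cell death caused by Vpr and the record does not say whether a fall means rescue or toxicity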
#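 Fission yeast RE007 carrying one integrated HIV-1 vpr copy, seeded at OD 0.01 in PMG+AL medium with 23 nL pinned compound. Grown 24 h at 30 degrees; viability read by BacTiter-Glo luminescence after 5 min.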
# Cruzain inh Det – qHTS Assay for Promiscuous and Specific Inhibitors of Cruzain (with detergent). purified cruzain, Z-FR-AMC fluorescence, 0.01% Triton. Potency, µM, without a hit: max response, negative = inhibition, usual class: inhibitors. hit rate 0.43% among 200,000;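 also: plate controls were neutral wells for no effect and buffer without enzyme for full effect; nearly all actives have a fitted effect of over 40% in size; top concentration of the series not given in the record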
#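 Detergent-containing arm of a paired screen for aggregation-based inhibition: 0.01% Triton X-100 present. Cruzain at 1.5 nM cleaved 2 uM Z-FR-AMC at pH 5.5 with 5 mM DTT; AMC fluorescence gain over 60 s measured activity.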
# Marburg entry inh – qHTS for inhibitors of binding or entry into cells for Marburg Virus. Marburg virus pseudotyped entry inhibition, cell reporter; control for the full effect not named in the record; about a third of the inactives were read at about 46 µM. AID 540276, 2011. hit rate 1.8% among 300,000. Potency, µM (series often up to 37.8 µM), for inactives: top-dose activity change, negative = inhibition, most hits filed as inhibitors; active = well fitted inhibition curve with a large enough effect; inconclusive = small, poorly fitted or top-dose-only effect, or effect the other way; inactive = flat fitted curve, though single readings scatter; tested in HEK293 cells; about a fifth of its hits are not listed in these tables; also: % is scaled to controls: 0 for no effect and ±100 for the full control effect; luciferase read-out
# * hit, by the source's call; ? = inconclusive; nt = no result given; & = joins results of further samples; [ ] = dose if it differs, or a comment. Unless noted, calls follow the shape of the dose curve; as a rule, active = well fitted curve in the direction sought with a large enough effect; inconclusive = small, poorly fitted or top-dose-only effect, or another doubt; inactive = no such curve, though single readings can be large; an effect the other way counts as inactive or inconclusive. Potency is read from the fitted curve at half-maximal effect. Rows are unselected; about 4.7% have a hit in one of these screens.
# Every second line gives: Cruzain inh Det | Marburg entry inh | RE007 growth inh | NS1 function inh | StopGo reporter | Cruzain noTriton | LASV entry inh | SARS PLP yeast
COc1cc(NS(=O)(=O)c2ccc(Nc3nc(-c4cccc([N+](=O)[O-])c4)cs3)cc2)nc(OC)n1
  -9.0% | 1.0%&15.9% | 4.7% | -1.5% | 17.3% | 31.6µM* | 1.5%&-11.3% | 14.1%
COc1ccc(-n2cnnc2SCC(=O)Nc2nc(C)c(Cl)cc2Cl)cc1
  -3.3% | 1.5% | -15.5% | -4.6% | 0.0% | 4.4% | -11.4% | 3.4%
CC(=O)Nc1cccc(Cl)c1C(=O)O
  3.2% | 14.4% | 31.6% | 6.2% | -13.9% | 6.2% | -1.1% | 0.8%
COc1ccc(-c2nnc(SCC(=O)N3CCN(c4ccccc4)CC3)o2)cc1OC
  -3.7% | 8.4% | 11.5% | 10.4% | -6.6% | 0.0% | 18.0% | -1.7%
CCOC(=O)C1CCN(C(=O)C2CCN(S(=O)(=O)CC)CC2)CC1
  -1.9% | 0.0% | -4.0% | 1.6% | -0.5% | -6.3% | -20.3% | 3.9%
CCN(CC1CCCO1)C(=O)CCc1nnc(Cc2ccc3c(c2)OCO3)o1 (stereo unspecified)
  nt | ? | -6.1% | 1.2% | -8.3% | nt | 5.9%[46.1 µM] | 0.1%
Cc1c(CNC2CCC(C)CC2)c(C(=O)O)c(C)n1Cc1ccccc1 (stereo unspecified)
  4.4% | 0.6% | -3.5% | 2.3% | -21.1% | 9.5% | -0.7% | -6.1%
Cc1ccccc1/C=N/Nc1ncnc2nc[nH]c12
  nt | nt | -5.6% | 3.3% | 0.0% | nt | nt | -1.2%
O=C(CSc1nc(C(F)(F)F)cc(=O)[nH]1)N1CCC(Cc2ccccc2)CC1
  nt | -0.8%[46.1 µM] | -14.3% | nt | -14.3% | nt | 29.9% | 2.3%
O=C(CN1CCN(C(c2ccccc2)c2ccccc2)CC1)NC(=O)NCc1ccco1
  1.3% | ? | -11.3% | -30.3% | -16.3% | -0.4% | ? | -8.0%

# Next section (5 carried over from the part before).
# Every second line gives: Cruzain inh Det | Marburg entry inh | RE007 growth inh | NS1 function inh | StopGo reporter | Cruzain noTriton | LASV entry inh | SARS PLP yeast
CCN(CC1CCCO1)C(=O)CCc1nnc(Cc2ccc3c(c2)OCO3)o1 (stereo unspecified)
  nt | ? | -6.1% | 1.2% | -8.3% | nt | 5.9%[46.1 µM] | 0.1%
Cc1c(CNC2CCC(C)CC2)c(C(=O)O)c(C)n1Cc1ccccc1 (stereo unspecified)
  4.4% | 0.6% | -3.5% | 2.3% | -21.1% | 9.5% | -0.7% | -6.1%
Cc1ccccc1/C=N/Nc1ncnc2nc[nH]c12
  nt | nt | -5.6% | 3.3% | 0.0% | nt | nt | -1.2%
O=C(CSc1nc(C(F)(F)F)cc(=O)[nH]1)N1CCC(Cc2ccccc2)CC1
  nt | -0.8%[46.1 µM] | -14.3% | nt | -14.3% | nt | 29.9% | 2.3%
O=C(CN1CCN(C(c2ccccc2)c2ccccc2)CC1)NC(=O)NCc1ccco1
  1.3% | ? | -11.3% | -30.3% | -16.3% | -0.4% | ? | -8.0%
CC(=O)SC(C)CC(=O)Nc1ccccc1 (stereo unspecified)
  5.5% | -9.1% | 1.3% | 0.7% | -7.7% | -1.9% | -9.5% | 2.2%
Cc1ccc(NCC(=O)c2ccc(C)cc2)cc1
  nt | nt | -26.6% | -16.7% | 23.6% | nt | nt | 16.6%
O=C(/C=C/Nc1ccc(F)cc1)c1ccc(Oc2ncccn2)cc1
  0.3% | 11.3% | -13.0% | -3.0% | 35.1%[activator] | ? | 8.3% | 1.5%
O=c1oc2ccccc2c2c1C(c1ccc(Cl)cc1)Nc1ccc3ccccc3c1-2 (stereo unspecified)
  0.3% | -0.2% | 8.1% | 6.6% | -10.0% | 3.98µM* | -5.5% | 2.7%
O=C(OCC(=O)N1CCc2ccccc2C1)c1cccnc1Cl
  nt | 10.1% | -3.6% | nt | 83.8%[activator] | nt | 27.4% | -2.9%
CC(C)C1(C2CCCC2)NC(=O)NC1=O (stereo unspecified)
  nt | 4.3%[46.1 µM] | -11.4% | nt | -6.6% | nt | 2.5%[46.1 µM] | nt
CCOC(=O)c1c(-c2ccc(-c3ccccc3)cc2)csc1NC(=O)C1C2CCC(O2)C1C(=O)O (stereo unspecified)
  ? | -6.4% | 6.0% | 14.3% | 0.0% | ? | ? | 2.1%
COc1ccc(S(=O)(=O)N2CCN(C(=O)Cc3cccs3)CC2)cc1
  0.0% | nt | 2.9% | -5.1% | -6.3% | -10.1% | nt | -15.8%
O=C(c1ccc(N2C(=O)CCC2=O)cc1)N1CCN(c2ccccc2)CC1
  3.3% | 14.1% | 0.9% | -6.4% | 1.2% | -8.0% | -6.9% | 9.1%
CSc1ncc(C(=O)Nc2cccc(Cl)c2C)c(C)n1
  nt | -6.3%[46.1 µM] | 14.1% | -1.3% | -12.2% | nt | 6.7%[46.1 µM] | -0.9%
O=C(OCc1ccccc1Cl)c1ccc(-c2nnn(Cc3ccccc3Cl)n2)cc1
  0.4% | -12.3%[46.1 µM] | nt | nt | -5.9% | -7.4% | -7.8%[46.1 µM] | nt
Cc1ccc(CN2CCC(Oc3cccc(C(=O)NCc4cccnc4)c3)CC2)o1
  nt | nt | -2.8% | -0.3% | 2.6% | nt | nt | -0.8%
O=C(C1CCN(S(=O)(=O)c2ccc(Cl)cc2)CC1)N1CCOCC1
  6.8% | 21.6% | -5.2%[3.69 µM] | 1.1% | -2.5% | 2.1% | 0.3% | 23.7%
COc1ccc(/C(C)=N/N2CCOCC2)c(O)c1
  nt | nt | -13.7% | 3.8% | 18.5% | nt | nt | 0.0%
COc1ccc(NC(=O)CCN2CCN(S(=O)(=O)c3cc(Cl)ccc3OC)CC2)cc1
  1.3% | 11.2%&11.2%[46.1 µM] | 10.9% | -19.9% | -27.5% | 11.5% | 8.2% | 0.3%
O=C(O)CCN1Cc2ccccc2C1=O
  -6.1% | 3.4% | 24.5% | -8.1% | 20.2% | -4.2% | 19.5% | 10.6%
COC(=O)Cc1cc(OC)c(OC)cc1S(=O)(=O)N(C)C
  nt | -6.1%[46.1 µM] | 1.8% | 6.4% | 12.7% | nt | 1.9% | -2.9%
COc1ccc(-c2noc(-c3ccc(C)cc3)n2)cc1
  0.6% | ? | -15.4% | 0.6% | 23.3% | -4.7% | ? | -2.6%
O=C(O)c1ccccc1OCCOc1ccccc1C(=O)O
  7.6% | 23.3% | -0.6% | -3.2% | 59.9%[activator] | 12.4% | 8.3% | 1.8%
Cn1c(=O)c2c(nc(N3CCNCC3)n2Cc2cccc3ccccc23)n(C)c1=O
  4.2% | -27.9% | -4.2% | -5.0% | -21.7% | 1.3% | 15.4% | 0.5%
COc1ccc(NC(=S)Nc2ccc(S(N)(=O)=O)cc2)c(OC)c1
  nt | 2.0%[46.1 µM] | 22.7% | 6.1% | -13.3% | nt | -0.5% | 1.1%
CN1CCN(c2ccccc2/C=N/NC(=O)c2cccnc2)CC1
  nt | nt | -9.8% | 4.7% | -6.2% | nt | nt | 0.3%
Cc1ccc(C(=O)NC2CCN(CC(=O)NCc3cccs3)CC2)cc1
  nt | -0.3%[46.1 µM] | 1.4% | nt | 9.4% | nt | 0.8% | 1.7%
O=C(Nc1ccc(S(=O)(=O)Nc2ncccn2)cc1)c1ccccc1
  nt | nt | -6.1% | 19.7% | -1.5% | nt | nt | -11.8%
Cc1nc2ccc(Cl)cn2c1P(=S)(N1CCOCC1)N1CCOCC1
  1.5% | -11.7% | -13.9% | -11.0% | -26.0% | 23.8% | 7.5% | -4.0%
O=C(COC(=O)CC12CC3CC(CC(C3)C1)C2)Nc1cccnc1Cl
  nt | 12.2%[46.1 µM] | 39.1% | -5.5% | -20.3% | nt | -5.8% | 0.5%
CCCNC(=O)c1nc2ncc(Br)cn2n1
  3.6% | 5.5% | 0.0% | -2.5% | -19.4% | 0.3% | 1.2% | -4.2%
Clc1ccc(C2=C3CCCCn4c(-c5ccccc5)c[n+](c43)C2)cc1
  -12.6% | ? | 8.7% | ? | 0.0% | ? | -20.7% | -2.0%
CCOc1ccc(S(=O)(=O)NCc2ccc(Cl)cc2)c2cccnc12
  -4.6% | -1.7% | -8.1% | -24.5% | 30.6%[activator] | -2.9% | 12.3% | 26.2%
COc1ccccc1CN(Cc1c(Cl)cccc1Cl)S(=O)(=O)c1ccc(Br)cc1
  0.5% | nt | nt | nt | -12.2% | -11.8% | 9.4%[46.1 µM] | nt
COc1ccc(OC)c(S(=O)(=O)NC(C)CCc2ccccc2)c1 (stereo unspecified)
  nt | nt | -5.2% | -31.1% | 63.4%[activator] | nt | nt | ?
Cc1ccc(C)c(CSc2nc(-c3ccccc3F)nc3c2Cc2c(CO)cnc(C)c2O3)c1
  -4.1% | nt | nt | nt | -20.9% | 13.4% | 12.6%[46.1 µM] | nt
CCOc1cc(CN2CCN(c3cccc(C(F)(F)F)c3)CC2)ccc1OC
  1.0% | ? | -5.1% | -4.0% | nt | 8.4% | -15.3% | -10.7%
CN1CCCCc2c1nc1ccccc1c2N (tested in a mixture with another compound)
  -1.3% | ? | 9.8% | -0.5% | -22.9% | -9.5% | 21.9% | -6.9%
NC(=O)c1ncc(C(F)(F)F)cc1Oc1ccc(C(F)(F)F)cc1
  1.0% | -5.9%[46.1 µM] | -3.7% | 16.9% | 0.0% | 9.3% | 1.6% | 15.4%
Cc1nn(C)cc1/C=N/NC(=O)c1ccc2c(c1)OCO2
  -1.5% | 11.8% | -9.9% | 2.3% | 29.7% | 5.0% | 20.1% | -0.3%
Cc1nn(C)cc1/C=N/O
  2.0% | ? | -5.6% | 4.6% | 2.8% | -0.1% | -24.9% | nt
